Rango dissoc inh: prevents RanGTP from dissociating the Rango-importin beta complex; O95149+P62826; Biochemical FRET Rango-importin beta, RanGTP-induced dissociation; Potency, µM (titrated, usually from 46.1 µM), for inactives: top-dose activity change, negative = inhibition; 340,000 compounds, 0.071% hits; AID 540253; active means falling FRET ratio curve, often poorly fitted, with flat reads before Ran was added; inconclusive means other falling curves, or compound fluorescence or quenching; inactive means flat or rising ratio curve;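 further: potency means the concentration at half of the fitted maximal effect; % of control where 0% means no effect; nearly all actives have a fitted effect of over 45% in size; -100% = wells without RanGTP and RCC1; the record marks most hits as doubtful in a second field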
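Rango FRET biosensor (snurportin-1 IBB flanked by N-terminal EYFP and C-terminal CFP10) at 0.1 uM, with 0.25 uM importin beta in PBS, 1mM DTT, 0.02% Tween-20, 0.1% BSA. 0.6 uM Ran, 2mM GTP and 0.2 uM RCC1 were then added for 45 min at room temperature. Inhibition read as loss of FRET rise.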
GLA inh pH 4.5: alpha-galactosidase A (human) inhibition, pH 4.5; P06280; purified enzyme, 4-MU-alpha-Gal fluorescence, pH 4.5; activity change, negative = inhibition, % at 105 µM; 230,000 tested, under 10 active; AID 1467; inconclusive = small, poorly fitted or top-dose-only inhibition, or a rising curve; inactive = flat fitted curve, though single readings scatter; no compound was filed as active;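 further: 0% = full activity with enzyme and -100% = basal without enzyme; dose as in the result columns while the protocol names 77 µM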
Target sequence (P06280 whole entry, looked up): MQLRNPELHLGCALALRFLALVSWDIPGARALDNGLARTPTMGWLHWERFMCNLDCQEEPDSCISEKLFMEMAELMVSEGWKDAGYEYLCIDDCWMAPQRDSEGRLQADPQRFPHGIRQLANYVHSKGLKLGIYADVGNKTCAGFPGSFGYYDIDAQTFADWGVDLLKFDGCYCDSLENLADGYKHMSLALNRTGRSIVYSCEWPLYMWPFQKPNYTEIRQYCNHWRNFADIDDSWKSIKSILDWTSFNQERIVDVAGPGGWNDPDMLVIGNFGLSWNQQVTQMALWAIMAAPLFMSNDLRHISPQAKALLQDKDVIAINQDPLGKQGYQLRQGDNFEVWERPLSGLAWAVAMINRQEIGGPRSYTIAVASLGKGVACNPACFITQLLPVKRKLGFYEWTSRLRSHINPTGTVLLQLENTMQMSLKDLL
Rango complex inh: Rango-importin beta binding inhibition | Rango CFP/YFP FRET sensor + importin beta, 45 min | Potency, µM (highest dose often 92.2 µM), inactives show at the highest dose inhibition of complex formation | 340,000 compounds, 0.031% hits; active = rising FRET ratio curve, often small or poorly fitted; inconclusive = mostly compound fluorescence or quenching in the first reads; inactive = flat curves in all reads;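 further: potency means the concentration at half of the fitted maximal effect; 0% = DMSO wells and 100% = buffer wells lacking importin beta; nearly all actives have a fitted effect of over 15% in size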
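FRET biosensor Rango (snurportin 1 IBB between N-terminal EYFP and C-terminal Cerulean), 50 nM in PBS/1 mM DTT/0.02% Tween-20/0.1% BSA, preincubated 5 min RT with compound; 0.125 microM importin beta added, 45 min RT, CFP/YFP FRET ratio read.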
miR-21 FLuc: miR-21 reporter, rising signal; HeLa miR-21 FLuc reporter, luciferase, 48 h; Potency, µM (titrated, usually from 38.3 µM), without a hit: at the highest dose reporter change, positive = more light; 340,000 tested, under 10 active; AID 2288; active = well fitted rising curve with a large enough effect; inconclusive = small, poorly fitted or top-dose-only effect; inactive = no such curve, though single readings can be large or run the other way;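 further: % of control where 0% means no effect; miR-21 action dims this reporter so a rising signal means less miR-21 action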
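HeLa cells endogenously expressing miR-21, stably carrying CMV-driven firefly luciferase with a downstream miR-21 binding site, 2000 cells/well. Titrations up to approximately 40 uM, 48 hours; luciferase luminescence read.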
* hit, by the source's call; ? = inconclusive; · = not tested or not shown; & = joins results of further samples; [ ] = dose if it differs, or a comment.

SMILES	Rango dissoc inh	GLA inh pH 4.5	Rango complex inh	miR-21 FLuc
CCCCN(C(=O)c1c(C)noc1C)c1c(N)n(CCCC)c(=O)[nH]c1=O	-7%	·	?	·
CSCC(C)N1CCC(N2CCC(C(=O)NCc3ccccn3)CC2)CC1 (stereo unspecified)	11%	·	1.4%	1%
COc1ccc(NC(=O)/C=C/c2ccc(OC)c(OC)c2)cn1	2%	-3	-5.8%	-9%
CCCCN(CC)CCCNC(=O)c1cn(C)c(=O)c2c1c1ccccc1n2C	-1%	·	0.4%	-1%&-6%
Cc1ccc(S(=O)(=O)Nc2ccccc2CNc2ccccn2)cc1	-16%	0	-2.1%	-38%
CCN(CC)S(=O)(=O)c1ccc(N2CCOCC2)c(NC(=O)c2ccc(=O)n(C)n2)c1	0%	·	-0.1%	·
COC(=O)c1ccc(Cl)c(S(=O)(=O)N2CCCC2)c1	2%	1	3.9%	-2%
COc1ccc(NC(=O)c2ccc(Cl)c(S(=O)(=O)N3CC(C)OC(C)C3)c2)cn1 (stereo unspecified)	-15%	·	-1.6%	·
Cc1scc(C(=O)Nc2ccon2)c1-c1ccccc1	-7%	-9	7.7%	-4%
CC1CCN(Cc2nc3c(c(=O)n(C)c(=O)n3C)n2CCc2ccccc2)CC1	6%	·	-3.6%	·
O=c1c(Cc2ccc(F)cc2)c(O)ccn1Cc1ccc(Cl)cc1Cl	-3%	3	0.6%	0%
COC(=O)[C@H](C)NC(=O)Nc1cc(Cl)ccc1C	-23%	1	2.8%	-6%
Cc1ccc2c(NC(=O)C3CC3)cccc2n1	12%	-6	-0.6%	-1%
CCOC(=O)C1=C(C)N=c2s/c(=C\c3cccc(OCC(=O)O)c3)c(=O)n2C1c1ccccc1 (stereo unspecified)	-6%	·	?	1%
CCN(CC)C(=O)COC(=O)c1ccc(C)c(NC(=O)c2ccco2)c1	0%	0[21.1 µM]	3.4%	4%
Cc1cc2cc(C#N)c(SCC(=O)Nc3nonc3C)nc2cc1C	-6%	·	2.7%	-22%
OCCC1CN(Cc2cccn2-c2nccs2)CCN1C1CCCCC1 (stereo unspecified)	0%	10	-1.9%	-6%
COc1ccc(S(=O)(=O)N(C)C)cc1NC(=O)CN1C(=O)NC2(CCCC2)C1=O	-2%	·	-0.2%	0%
Cc1cccc(C(=O)NC2CC3CCCC(C2)N3C(=O)NC2CCCCC2)c1 (stereo unspecified)	-9%	3	0.6%	-2%
Cc1ccc(NC(=O)CCN2C(=O)OC(C)(C)C2(C)O)cc1 (stereo unspecified)	2%	3	-1.0%	-7%
O=C(/C=C/c1ccc(F)cc1)N1CCCN(C(=O)/C=C/c2ccc(F)cc2)CC1	3%	-4	-1.6%	-10%
CC(C)(C)S(=O)(=O)N1Cc2ccc(CO)cc2[C@@H]1CCO	-19%	·	0.3%	·
O=Cc1cccn1-c1ccc(O)cc1	-10%	-1	-0.4%	-10%
CC(=O)Nc1cccc(-c2nc3ccccc3s2)c1	-6%	5	0.2%	-43%
Cc1cccc(NC(=O)CCSc2nnc(Cc3ccccc3)o2)c1	6%	6	-1.0%	-1%

Next records follow.
SMILES	Rango dissoc inh	GLA inh pH 4.5	Rango complex inh	miR-21 FLuc
CSc1n[nH]c(=O)n1-c1cccc(Cl)c1	-8%	-3	-1.3%	-10%
C/C(CC(=O)Nc1ccc(OCc2ccccc2)cc1)=N\NC(=O)C(=O)Nc1cccc(C)c1	2%	-10	-0.8%	-39%
COc1ccc(C(=O)NCCCSc2ccccc2)cc1F	1%	·	-2.6%	-5%
Cc1ccc(CN(CC(=O)NCc2ccccn2)S(=O)(=O)c2ccccc2)cc1	-4%	·	-0.3%	0%
COc1ccc(NC(=O)CSC2=NC(=O)CC(C)=N2)cc1	-1%	8	-0.2%	0%
COc1ccc(/C=N/NC(=O)c2ccncc2)cc1[N+](=O)[O-]	34%	-1	6.5%	1%
Cc1cccc(C)c1NC(=O)CNC(=O)c1ccc(N2CCCC2)c([N+](=O)[O-])c1	-4%	·	-5.1%	·
COc1cc(O)oc1C=Nc1ccc(C(F)(F)F)cc1	2%	-18	7.2%	-29%
COc1ccc2[nH]c(=O)c(CN(Cc3nnnn3Cc3ccco3)C3CCCCC3)cc2c1	-29%	-1	?	-8%
COc1ccc(OC)c(NC(=O)C(CC(C)C)NC(=O)C2CCCCC2)c1 (stereo unspecified)	-3%	6	0.4%	-8%
Cc1nnc(SCC(=O)NNC(=O)COc2ccc(Br)cc2)n1C	-9%	·	0.3%	·
CCN(CC)CCOC(=O)/C=C/c1ccccc1	-15%	-6	3.1%	2%
C=CCNC(=O)c1onc(CSc2ccccc2F)c1C(=O)O	-1%	-10	4.4%	-9%
COCCNC(=O)C(c1ccc(O)cc1)N(C(=O)CCC(=O)Nc1nccs1)c1ccc(C)cc1 (stereo unspecified)	-4%	2	1.7%	1%
Cc1ccn2c(NC3CCCCC3)c(-c3cccc(-c4cccc(Cl)c4)c3)nc2c1	8%	·	?	·
O=C(Nc1ccc(F)cc1)C1CC2CCC1C2 (stereo unspecified)	-10%	·	5.3%	-7%
CC(C)Oc1cccc(C(=O)C2CCCN(C(=O)c3ccnn3C)C2)c1 (stereo unspecified)	-12%	2	3.2%	-15%
CCCOC1CCCN(C(=O)c2ccc(OC3CCN(Cc4ccccn4)CC3)cc2)C1 (stereo unspecified)	9%	·	-2.0%	6%
Cc1ccc(CNC(=O)CNC(=O)c2ccco2)cc1	2%	·	1.6%	-1%
O=C(NCCc1ccccc1F)N[C@@H](Cc1ccccc1)C(=O)O	-4%	·	0.0%	-8%
COc1ccc(N(C(=O)Cn2nnc3ccccc32)C(C(=O)NCc2ccco2)c2ccncc2)cc1 (stereo unspecified)	-2%	·	2.4%	-1%
CS(=O)(=O)N(CC(=O)NCc1ccc2c(c1)OCO2)Cc1ccccc1	-5%	1	-4.1%	-5%
CC(=O)Nc1cccc(N2C(=O)CC(N3CCC(C(=O)N4CCCCC4)CC3)C2=O)c1 (stereo unspecified)	?	-5	2.2%	-3%
COCCCNC(=O)Cn1cc2c(n1)CCC(C)C2 (stereo unspecified)	-14%	4	6.7%	-1%
CN1CCN(C(c2cc3cc4c(cc3[nH]c2=O)OCCO4)c2nnnn2C2CCCC2)CC1 (stereo unspecified)	·	9	·	-1%

Remaining list, next part
SMILES	Rango dissoc inh	GLA inh pH 4.5	Rango complex inh	miR-21 FLuc
O=C(O)c1cccc(S(=O)(=O)N2CCN(c3ccccn3)CC2)c1	9%	·	-0.1%	-3%
O=C(Nc1nc2c(s1)CCCC2)c1cccc(S(=O)(=O)N2CCCc3ccccc32)c1	4%	-4	-4.9%	15%
Cc1cc2ncc(-c3cccc(Cl)c3)cn2n1	7%	8	5.4%	-23%
NCCCCCc1nnc(SCc2ccc(Cl)c(Cl)c2)o1	24%	5	0.4%	1%
CCOc1ccc(S(=O)(=O)N2CCCC(C(=O)N3CCOCC3)C2)cc1C (stereo unspecified)	7%	·	-3.2%	-4%
COC(=O)c1cc2c(ccn2-c2ccc(F)cc2)n1CC(C)C	2%	9	8.2%	-6%
CCOc1ccc2[nH]c(=O)c(C(c3nnnn3C3CCCCC3)N3CCN(CC)CC3)cc2c1 (stereo unspecified)	?	10	?	-8%
CC(C)=NN/C(N)=N/C(=S)Nc1ccc(C)cc1	-13%	3	-5.8%	-12%
O=S(=O)(c1ccc(Br)cc1F)N1CCC(O)CC1	?	·	-0.8%	·
CCCCn1c(N)c(N(CC)C(=O)CCNC(=O)c2ccc(Cl)cc2)c(=O)[nH]c1=O	-19%	·	1.2%	·
COc1ccc(NC(=O)Nc2ccc3c(c2)C(=O)N([C@H](C)CO)C[C@H](C)[C@@H](CN(C)C(=O)Nc2ccccc2)O3)cc1	16%	·	0.5%	·
CCCOC(=O)CSC1=C(C#N)C(c2ccccc2OC)C(C#N)C(=O)N1 (stereo unspecified)	-9%	-12	-5.6%	-6%
COc1cc(/C=C/C(=O)OCC(=O)NC2CC2)cc(OC)c1OC	-19%	·	3.5%	·
C=CCNc1nc(N2CCCCC2)c(C#N)c2c1CN(Cc1ccccc1)CC2	?	2	?	-6%
COc1ccc(C2Nc3ccccc3C(=O)N2NS(C)(=O)=O)cc1 (stereo unspecified)	-1%	-2	-0.5%	-8%
COc1ccc(-c2sc3cc4c(cc3c2C#CC2(N)CCCCC2)OCO4)cc1	-11%	·	2.0%	·
COc1ccc(CCCC(=O)NC2CCCCC2C)c(C)c1 (stereo unspecified)	3%	-5	-2.3%	-5%
O=c1nc2s/c(=C\c3ccc(-c4ccccc4[N+](=O)[O-])o3)c(=O)n2nc1-c1ccccc1	-11%	-3	-1.6%	-7%
N#CC(c1ccccc1)N(CCCCl)C(=O)c1ccccc1 (stereo unspecified)	-11%	-12	0.5%	-5%
C=CCNC(=S)N/N=C(\C)c1ccc(OC)cc1	-14%	-1	-0.1%	-3%
O=C(c1ccccc1)N1CCN(c2ncnc3c2cnn3-c2ccccc2)CC1	0%	3	-0.4%	-3%
CCOc1ccc(NC(=O)CC2CC(C)(C)OC2=O)cc1 (stereo unspecified)	10%	-4	1.6%	-11%
CC(NC(=O)Nn1cnnc1)(C(F)(F)F)C(F)(F)F	2%	-3	4.9%	14%
COc1ccc2ccccc2c1/C=N/Nc1cccc(C(=O)O)c1	-13%	·	0.2%	-62%
Cc1oc(-c2ccccc2Cl)[n+]([O-])c1C	-12%	-3	4.7%	0%

(list continues)
SMILES	Rango dissoc inh	GLA inh pH 4.5	Rango complex inh	miR-21 FLuc
Cc1nnc(NC(=O)CSc2nnc3scc(-c4ccc(C)c(C)c4)n23)s1	-14%	3	2.4%	1%
CC(=O)Nc1nc(CC(C)C)cc2c1c(=O)oc1ccccc12	27%	-1	-0.3%	-5%
O=C(N[C@H](C(=O)O)c1ccccc1)C1CCC(Cn2nnc3ccccc3c2=O)CC1 (stereo partly specified)	·	0	·	-2%
CCc1nn(CC(=O)NC(C)CCc2ccccc2)c(=O)c2cc3occc3n12 (stereo unspecified)	-7%	·	-0.7%	-2%
Cc1ccc(CN2CC(C(=O)O)CC2=O)cc1 (stereo unspecified)	-8%	-6	0.7%	1%
CN1CCN(C(=O)CN(C)S(=O)(=O)c2ccc3ccccc3c2)CC1	-1%	3	7.7%	0%
O=C(CCN1C(=O)/C(=C/c2ccccc2F)SC1=S)Nc1cccnc1	9%	·	0.0%	0%
COc1cc(C(=O)Nc2sc3c(c2C#N)CCN(C(C)=O)C3)cc(OC)c1OC	?	3	?	11%
O=C(CN1CCN(Cc2ccccc2)CC1)Nc1ccc(Cl)cn1	2%	9	-4.7%	-7%
CCOc1cc(-c2conc2N)cc(OCC)c1OCC	0%	8	-0.7%	1%
Cc1cccc(C(=O)OCC(=O)Nc2ccc3c(c2)OCCO3)c1	7%	·	-0.1%	·
COC(=O)c1cccc(Nc2nc(-c3cccnc3)nc3ccccc23)c1	2%	-6	-2.0%	15%
Cc1c(C)c2ccc(OC(C)C(=O)NCCCN3CCOCC3)c(C)c2oc1=O (stereo unspecified)	18%	·	0.6%	-3%
Cc1nc(NCCc2ccccc2)sc1C(=O)O	-14%	·	-0.3%	-31%

Six entries from above, with values ahead of the structure:
Rango dissoc inh,GLA inh pH 4.5,Rango complex inh,miR-21 FLuc,structure
3%,-4,-1.6%,-10%,O=C(/C=C/c1ccc(F)cc1)N1CCCN(C(=O)/C=C/c2ccc(F)cc2)CC1
-11%,·,2.0%,·,COc1ccc(-c2sc3cc4c(cc3c2C#CC2(N)CCCCC2)OCO4)cc1
-19%,·,0.3%,·,CC(C)(C)S(=O)(=O)N1Cc2ccc(CO)cc2[C@@H]1CCO
-29%,-1,?,-8%,COc1ccc2[nH]c(=O)c(CN(Cc3nnnn3Cc3ccco3)C3CCCCC3)cc2c1
-4%,2,1.7%,1%,COCCNC(=O)C(c1ccc(O)cc1)N(C(=O)CCC(=O)Nc1nccs1)c1ccc(C)cc1 (stereo unspecified)
-1%,-10,4.4%,-9%,C=CCNC(=O)c1onc(CSc2ccccc2F)c1C(=O)O

Screening results from PubChem.

Some of the compounds tested (hit frequency here may not be typical).
